Screening results as filed in PubChem BioAssay.
StopGo reporter: High Throughput Screening for Foot and Mouth Disease Virus Antivirals. human cells with a luciferase reporter of 2A StopGo recoding; control for the full effect not named in the record. Potency, µM (top dose mostly 57.9 µM), inactives show top-dose signal change, negative = less light. hit rate 1.2% among 410,000; active = well fitted falling curve with a large enough effect; inconclusive = small, poorly fitted or top-dose-only effect; inactive = no such curve, though single readings can be large or run the other way; tested in HEK293T cells; also: nearly all actives have a fitted effect of over 45% in size; luciferase light after 4 h
RE007 growth inh: qHTS Assay for Inhibitors of the HIV-1 protein Vpr; Potency, µM (titrated, usually from 92.2 µM), for inactives: at the top dose activity change, negative = less growth; hit rate 0.21% among 360,000; S. pombe RE007 Vpr strain, BacTiter-Glo ATP luminescence, 24 h; control for the full effect not named in the record; active = well fitted falling curve with a large enough effect; inconclusive = small, poorly fitted or top-dose-only effect; inactive = no such curve, though single readings can be large or run the other way;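 also: nearly all actives have a fitted effect of over 50% in size; the assay follows cell death caused by Vpr and the record does not say whether a fall means rescue or toxicity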
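Fission yeast RE007 carrying one integrated HIV-1 vpr copy, seeded at OD 0.01 in PMG+AL medium with 23 nL pinned compound. Grown 24 h at 30 degrees; viability read by BacTiter-Glo luminescence after 5 min.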
Starred values were filed as active, the others as inactive; ? = inconclusive; [ ] = dose if it differs, or a comment. % is scaled to controls: 0 for no effect and ±100 for the full control effect; potency is read from the fitted curve at half-maximal effect. Only part of the results is shown. The share of hits here may be higher or lower than overall.

Below each compound – StopGo reporter, RE007 growth inh
> COC(=O)C1=C[C@@H](C(=O)OC)C2C3=C(C(=O)C24CCCCC4)[C@H](C)n2c(=O)n(-c4ccccc4)c(=O)n2[C@@H]3C1 (stereo partly drawn)
→ -29%, -3%
> CC1(c2nnnn2-c2ccc3c(c2)OCCO3)CCC(=O)N1C1CCN(Cc2ccccc2)CC1 (stereo not drawn)
→ -29%, -4%
> Cc1ccc(S(=O)(=O)N2C3CCCCC3O[C@H]2CC(=O)OCc2ccccc2)cc1 (stereo partly drawn)
→ 36%[activator], -18%
> O=C(NCc1ccccc1)C1=C[C@@H](c2ccc(C(F)(F)F)cc2)C[C@@H](OCCCCO)O1
→ -1%, 7%
> CSCCC(C(=O)NCc1ccccc1)n1c(C2CCN(C(C)=O)CC2)nc2ccccc21 (stereo not drawn)
→ -18%, 2%
> CCCCCC(=O)N1C[C@@H](n2cc(C3CC3)nn2)[C@H](O)C[C@@H]1c1ccccc1
→ -20%, 10%
> COc1ccc(Cl)cc1-c1cc(C(=O)NCC2CCCCC2)[nH]n1
→ -12%, -1%
> CCN1C(=O)[C@H]2[C@@H](c3ccccc3)N[C@]3(CCCN(Cc4ccc(C)cc4)C3=O)[C@H]2C1=O
→ -19%, ?
> O=c1[nH]c(=S)[nH]c2c1C(c1cccc(C(F)(F)F)c1)OC(CCc1ccccc1)C2 (stereo not drawn)
→ 0%, 13%
> CCOC(=O)C1=CCN(S(=O)(=O)c2ccc(F)cc2)C1c1ccc(F)cc1 (stereo not drawn)
→ -20%, -5%
> Cc1nccn1CC(=O)c1ccccc1
→ -14%, 20%
> O=C(O)C(=Cc1cccc([N+](=O)[O-])c1)c1ccccc1
→ -10%, -1%
> Cc1nc(C(F)(F)F)ccc1C(=O)N1CCC1(C)C(=O)NS(=O)(=O)c1ccc(Cl)cc1 (stereo not drawn)
→ -10%, 3%
> COCOc1ccc(-c2oc3c(C/C=C(\C)CCC=C(C)C)ccc(O)c3c(=O)c2OCOC)c(OCOC)c1
→ -18%, 8%
> COc1ccccc1N1CCN(C(=O)CCCn2c(=S)[nH]c3ccccc3c2=O)CC1
→ 25µM*, -12%
> C[C@@H]1CN([C@H](C)CO)C(=O)CCCn2cc(nn2)CO[C@H]1CN(C)S(=O)(=O)c1ccc(C#N)cc1
→ ?, -19%
> COc1ccc(CCC(=O)N2c3ccccc3N=C(c3ccc4c(c3)OCO4)C2C(=O)Nc2ccc(OC)cc2)cc1 (stereo not drawn)
→ 14%, -11%
> CCc1cccc(CC)c1N1C(=O)COCC1=O
→ 0%, 11%
> CCC(CO)Nc1ccn2nc(-c3cccc(Cl)c3)cc2n1 (stereo not drawn)
→ 23%, 1%
> O=C(COC(=O)c1ccco1)Nc1cccc(S(=O)(=O)N2CCOCC2)c1
→ -9%, 4%
> O=C1c2ccccc2C(c2nc3ccccc3[nH]2)N1c1ccccn1 (stereo not drawn)
→ 1%, -7%
> CCCN1CCC(C)(C(=O)Nc2ccccc2Oc2ccccc2)C1 (stereo not drawn)
→ 1%, -11%[18.4 µM]
> O=C(OCc1ccccc1)N1CCC2CC1c1cc(Cl)ccc12 (stereo not drawn)
→ 40%[activator], -22%
> COc1ccc2sc(-c3ccccc3OC)c(-c3ccc(SC)cc3)c2c1
→ -1%, 3%
> CC(O)(c1ccc(F)c(F)c1)c1nc(-c2cccc3cccnc23)cs1 (stereo not drawn)
→ 42%[activator], -19%
> C[C@H]1CN([C@@H](C)CO)S(=O)(=O)c2ccc(Br)cc2O[C@H]1CN(C)Cc1ccc(F)cc1
→ 9%, 19%
> CN(C)c1ccc(NC(=O)Nc2ccc3c(c2)c(=O)n(C)n3Cc2ccccc2)cc1
→ -13%, ?
> Cc1ccc(S(=O)(=O)NC(=O)C2(C)CCN2C(=O)C2CCCCC2)cc1 (stereo not drawn)
→ -10%, 1%[18.4 µM]
> FC(F)(F)c1ccccc1Cc1c(C2CCCCC2)nc2ccc(Br)cn12
→ 10%, ?
> Cc1ccc(Cn2c(C)c(C(=O)NCc3ccccc3C(F)(F)F)sc2=O)cc1
→ -14%, 1%[18.4 µM]
> Cc1ccc(S(=O)(=O)NCc2nnnn2-c2ccc(F)cc2)cc1
→ 70%[activator], -1%
> CC(C)(C)OC(=O)N(Cc1ccccc1)Cc1ccccc1OCc1cccc(NC(=O)C2CC2)c1
→ ?, -3%
> S=C(NCCc1ccccc1)N1Cc2cc(N3CCOCC3)ccc2-n2nncc2C1
→ 38%[activator], 21%
> O=C1C[C@@H]2c3c(cccc3CN1Cc1ccccc1)C[C@@H](O)[C@H]2O
→ -8%, 7%
> COc1ccc(NC(=O)C2(C)Cc3c(-c4ccc(C(N)=O)cc4)ccnc3O2)cc1OC (stereo not drawn)
→ -1%, 10%[18.4 µM]
> CCCCCc1c(-c2cccc(Cl)c2)ncn1CCc1ccccc1OC
→ -27%, -5%
> Cc1ccc(S(=O)(=O)N2CCN(C(=O)COC(=O)COc3ccc(Cl)cc3)CC2)c(C)c1
→ -4%, 1%
> CC(C)(C)c1ccc(CC(=O)N2CCC2(C)C(=O)NCc2ccc3c(c2)OCO3)cc1 (stereo not drawn)
→ -23%, 6%[18.4 µM]
> COC(=O)C1(C(=O)OC)c2ccccc2N(S(=O)(=O)c2ccc(C)cc2)C1CC(C)=O (stereo not drawn)
→ -11%, -1%
> Cc1ccc(-c2nc(C)sc2CC(=O)OCC(=O)Nc2ccc(F)c(Cl)c2)cc1
→ -17%, 6%
> Cn1nc(C(C)(C)C)cc1NC(=O)C1(C)CCN1C(=O)Cc1ccc(-c2ccccc2)cc1 (stereo not drawn)
→ -45%, -6%[18.4 µM]
> Cc1ccc(NS(=O)(=O)c2ccc(C)c(NC(=O)c3ccc(S(=O)(=O)N4CCCCCC4)cc3)c2)c(C)c1
→ -18%, -2%
> Cn1c2c(c(=O)n1-c1ccccc1)CSCC2
→ -5%, 0%
> C1CN(P2(N3CC3)=NP(N3CC3)(N3CC3)=NP(N3CC3)(N3CC3)=N2)CCO1 (stereo not drawn)
→ -12%, -1%
> O=C(O)C(c1ccccc1)c1ccccc1
→ -11%, 37%

Ordered by heavy-atom count (ascending): part of the list above.
Below each compound – StopGo reporter, RE007 growth inh
> Cn1c2c(c(=O)n1-c1ccccc1)CSCC2
→ -5%, 0%
> Cc1ccc(S(=O)(=O)NCc2nnnn2-c2ccc(F)cc2)cc1
→ 70%[activator], -1%
> C1CN(P2(N3CC3)=NP(N3CC3)(N3CC3)=NP(N3CC3)(N3CC3)=N2)CCO1 (stereo not drawn)
→ -12%, -1%
> CC(C)(C)c1ccc(CC(=O)N2CCC2(C)C(=O)NCc2ccc3c(c2)OCO3)cc1 (stereo not drawn)
→ -23%, 6%[18.4 µM]

(further entries)
Below each compound – StopGo reporter, RE007 growth inh
> Cc1c(C(=O)NCc2cccs2)sc(=O)n1Cc1ccc(S(C)(=O)=O)cc1
→ ?, -1%[18.4 µM]
> CC1=C(C(=O)N(C)C)CC(CC(=O)NCc2cccc3ccccc23)C(=O)N1Cc1ccc(C(C)(C)C)cc1 (stereo not drawn)
→ -12%, 11%
> Cc1ccc(NC(=O)/C=C/c2ccco2)cc1S(=O)(=O)N1CCCCCC1
→ 0%, 10%
> Nc1ccn([C@@H]2O[C@H](CNCc3cc(Cl)ccc3OCc3ccc(Cl)cc3)[C@@H](O)[C@H]2O)c(=O)n1
→ 0%, -16%
> CC(=O)Nc1cc(-c2ccc(N)cc2)cn2c(-c3cccc(C(F)(F)F)c3)cnc12
→ -15%, -2%[18.4 µM]
> CN(CC(=O)Nc1ccc(F)c(F)c1F)C(=O)C1CCCN1C(=O)c1cccs1 (stereo not drawn)
→ -23%, -18%
> COc1cc(NC(=O)CNC(=O)Cn2cnc3sc(C)c(C)c3c2=O)cc(OC)c1OC
→ -14%, -18%
> Cc1cccc(C)c1NC(=O)C1(C)CCC(=O)N1CCCn1ccnc1 (stereo not drawn)
→ -12%, 4%
> CC(=O)Nc1ccc(SCC(=O)NC(=O)c2ccc(Cl)cc2)cc1
→ 2%, -1%
> C[C@H]1CN([C@@H](C)CO)S(=O)(=O)c2ccc(C#CC3CC3)cc2O[C@H]1CN(C)C(=O)c1cccnc1
→ 19%, -22%
> COC(=O)c1c(N)[nH]c(C(=O)c2ccccc2)c1-c1ccc(Br)cc1
→ -9%, -3%
> O=C(COC(=O)c1ccccc1)NCCCCc1ccccc1
→ -1%, 1%
> O=C(OCc1cn([C@H]2CN(Cc3cccs3)[C@@H](c3ccc(Cl)cc3)C[C@@H]2O)nn1)c1ccccc1
→ -14%, 7%
> CNCC(=O)c1ccccc1
→ -23%, -14%
> CCN1C(=O)[C@H]2[C@@H](c3ccc(C)cc3)N[C@]3(CCCN(Cc4ccco4)C3=O)[C@H]2C1=O
→ -14%, -9%

Full records, looked up by structure.
O=C(COC(=O)c1ccccc1)NCCCCc1ccccc1 as listed: StopGo reporter: -1%; RE007 growth inh: 1%
Cc1cccc(C)c1NC(=O)C1(C)CCC(=O)N1CCCn1ccnc1 (stereo not drawn) as listed: StopGo reporter: -12%; RE007 growth inh: 4%
CCN1C(=O)[C@H]2[C@@H](c3ccc(C)cc3)N[C@]3(CCCN(Cc4ccco4)C3=O)[C@H]2C1=O as listed: StopGo reporter: -14%; RE007 growth inh: -9%

(listing goes on)
Below each compound – StopGo reporter, RE007 growth inh
> CCOC(=O)c1cccc(C2=C(CNC(=O)c3ocnc3C)[C@H]3CC[C@@H](C2)N3Cc2ccccc2)c1
→ -13%, -3%
> Cc1ccccc1-c1n[nH]nc1C1=CC(=O)CC(C)(C)C1
→ -5%, 4%
> COc1ccccc1N1CCN(CC(=O)NC(=O)NCc2ccccc2)CC1
→ ?, 5%
> Cc1cccc(C)c1NC(=O)c1csc([C@H]2C[C@H](O)[C@@H](CO)O2)n1
→ -10%, 23%
> O=c1c2ccccc2nc(-c2ccccc2)n1O
→ -11%, ?
> CCc1nc2c(OCCn3cccc3)cccn2c1N(C)C(=O)C1CC1
→ -18%, -7%
> O=C(Oc1ccc(/C=N/NC(=O)c2ccccn2)cc1)c1ccc(Br)cc1
→ 54%[activator], 3%
> COc1cc(C(O)c2nc(-c3ccc4ccccc4c3)cs2)ccc1F (stereo not drawn)
→ -9%, -29%[18.4 µM]
> COc1ccc(NC(=O)C2(C)CCCN(C(C)C)C2)cc1OC (stereo not drawn)
→ -8%, -11%
> CNS(=O)(=O)c1ccc(CNC[C@H]2O[C@@H](n3cnc(C(N)=O)n3)[C@H](O)[C@@H]2O)cc1
→ -11%, 8%
> O=C(Cn1ccc(=O)[nH]c1=O)c1ccc([N+](=O)[O-])o1
→ -18%, -26%
> O=C(NCCCN1CCOCC1)c1cc(S(=O)(=O)N2CCCCC2)ccc1Cl
→ -1%, 14%
> Cc1ccccc1S(=O)(=O)N(C)C[C@@H]1OCc2cnnn2CCCC(=O)N([C@@H](C)CO)C[C@H]1C
→ -14%, -8%
> CC(C)C(=O)N1CCCC1(C)C(=O)Nc1ccc(F)cc1 (stereo not drawn)
→ -16%, -10%
> O=C(Nc1ccn(CCCNCC2CCCO2)c(=O)n1)OCc1ccccc1 (stereo not drawn)
→ -12%, -20%
> CC(C)C[C@@H]1COc2cccc(N3CCSCC3)c2S(=O)(=O)N1
→ -19%, 1%
> Cc1cccc(NC(=O)c2sc3nc(C)nc(N4CCOCC4)c3c2C)c1
→ -12%, 0%
> CCc1nc2ccc(C(=O)NCc3cccs3)cn2c1N(CC)CCOC
→ -11%, -5%
> Cc1nc2c(OCc3cccc(Cl)c3)cccn2c1N(C)Cc1cccs1
→ ?, -27%[18.4 µM]
> CCc1nc2c(OCc3ccc(F)cc3)cccn2c1N(C)C(=O)C(C)C
→ -12%, -2%
> CCCCN(C(=O)c1ccc2c(c1)S(=O)(=O)N=C1CCCCCN12)c1c(N)n(CC(C)C)c(=O)[nH]c1=O
→ -12%, 1%
> CCOC1=C2[C@@H](CN(S(=O)(=O)c3ccccc3)[C@H]2c2ccccc2)[C@H]2C(=O)N(c3ccccc3)C(=O)[C@H]2C1
→ -11%, 1%
> C[C@@H]1CN([C@@H](C)CO)C(=O)CCCn2nncc2CO[C@@H]1CN(C)C(=O)c1ccccc1
→ -13%, -14%
> CC(=O)NC(c1cccc(F)c1)c1nc(-c2ccccc2C)cs1 (stereo not drawn)
→ -10%, 7%[18.4 µM]
> CCc1nc2c(OCc3c(C)noc3C)cccn2c1N(C)C(=O)C(C)C
→ 1%, -4%
> COc1cccc(-c2cc3nc(-c4ccccc4)cc(N4CCN(C(=O)c5ccoc5)CC4)n3n2)c1
→ 32µM*, 2%
> CC(=O)Nc1ccc(-c2ccnc3c2CC(C(=O)NCc2cccc(Cl)c2)O3)cc1 (stereo not drawn)
→ -18%, 2%
> NC(=O)c1ccsc1NC(=O)c1cccs1
→ 0%, 4%
> CC1CN(C(=O)c2cccc(NS(=O)(=O)c3ccc(Br)cc3)c2)CC(C)O1 (stereo not drawn)
→ -9%, 1%
> COC(=O)N(C)C[C@@H]1OCc2cn(nn2)CCCC(=O)N([C@@H](C)CO)C[C@H]1C
→ -21%, -14%
> CC1(Cc2ccc(F)cc2)C(=O)Nc2c(Cl)cccc21 (stereo not drawn)
→ -22%, -4%
> O=C(O)c1ccc(NC2=C/C(=N/S(=O)(=O)c3cccs3)c3ccccc3C2=O)cc1
→ 10µM*, ?
> COC(=O)N(C)C[C@@H]1OCc2cnnn2CCCC(=O)N([C@H](C)CO)C[C@H]1C
→ -12%, 2%
